# Anaer choline gr = growth inhibitors of anaerobic choline-fed gram-negatives, minimal medium, absorbance; Gram-negative bacterium anaerobic choline minimal medium; stronger effect = lower value; many inactives read as strong as hits in the columns shown; calls only; 55,000 compounds, 0.2% hits; AID 1963822, 2024;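 active = growth z-score on choline under -2 at 7 or 20 h with little or no fall on glycerol, limits in tiers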;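 note: stock transfer was 300 nL into about 50 µL; the organism is E. coli; final concentration not given here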
# Anaer choline gr early = also measured in Anaer choline gr; calls as there; z-score; measured here: choline growth z-score, timepoint 1;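 score of optical density at 7 h as mean of two plates; lower means less growth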
# An asterisk follows results filed as active; i = inactive; + = active, no number; & = joins results of further samples. Only part of the results is shown. The share of hits here may be higher or lower than overall.
SMILES,Anaer choline gr,Anaer choline gr early
COc1ccc(S(=O)(=O)NC2CCN(C(=O)c3ccccc3)CC2)cc1,i,-0.44
Cc1ccc(S(=O)(=O)N2CCc3nc(N4CCCCC4)ncc3C2)c(C)c1,i,1.5
COC(=O)c1cc(C(=O)Nc2ccccc2C)c(=O)[nH]c1C,i,-0.51
O=C(NCCCN1CCN(C2CCCCC2)CC1)c1ccc2c(c1)NC(=O)C1CCCCN21 (stereo unspecified),i,-0.73
O=C(NC1CC1)c1c(-c2ccccc2)nnc2ccccc12,i,0.26
CCN(Cc1ccccc1)C(=O)C1CCN(S(=O)(=O)c2ccc3c(c2)CCCN3C(C)=O)CC1,i,-1.27
CC(C)Cn1c(=O)c(-c2ccc(C(=O)NC3CC3)cc2)nc2ccccc21,i,1.33
CCOc1ccc(C(=O)N2CCN(Cc3noc4ccccc34)CC2)cc1,i,-1.09
CCOc1cc(N)c(Cl)cc1C(=O)NCC1CN(Cc2ccc(F)cc2)CCO1 (stereo unspecified),i,-1.66&-0.48
Cc1nc2cc(C(=O)NC3CCN(Cc4ccccc4)CC3)ccc2n(Cc2ccccc2)c1=O,i,-0.77
CCCc1nc2nc(C)c(NS(=O)(=O)c3ccc(Br)cc3)c(=O)n2[nH]1,i,-1.46
O=c1c2sccc2n(Cc2nc(-c3ccccc3)no2)c(=O)n1CCc1ccccc1,i,0.07
COc1ccccc1-c1nnc(C2CCN(C(=O)c3ccc(F)cc3F)CC2)o1,i,0.47
CC1CN(c2oc(-c3ccccc3)nc2S(=O)(=O)c2ccccc2)CC(C)O1 (stereo unspecified),i,-0.24
Cc1cc(Sc2ccccc2NC(=O)c2ccccc2)n2ncnc2n1,i,-0.92
Cc1nc2nc(-c3ccc(C(C)(C)C)cc3)nn2c(C)c1CC(=O)N1CCCC1,i,-0.94
CC(=O)N1CCN(c2nc(C)cc(N3CCCCC3)n2)CC1,i,-0.16
O=C(CCc1nc(CSc2nnc(-c3ccncc3)o2)no1)Nc1ccc(F)c(Cl)c1,i,-0.18
CCn1c(=O)c(-c2noc(C(=O)N3CCCC3)n2)nn(-c2ccc(F)cc2)c1=O,i,-0.31
CCCCN(C)c1ccc2nnc(CCc3nc(-c4ccc(C)cc4)no3)n2n1,i,0.42
O=C1CC(c2cc(Br)ccc2F)c2cnn(-c3ccccc3)c2N1 (stereo unspecified),i,0.35
CCCOc1ccc(CNC(=O)C2=C(c3ccccc3)c3cc(Cl)ccc3S(=O)(=O)N2C)cc1,i,0.53
O=C(NCCc1nc(-c2ccccc2)no1)c1sc2cccc(Cl)c2c1Cl,i,0.96
O=S(=O)(c1ccccc1)c1nc(-c2ccccc2)oc1NCCCn1ccnc1,i,0.01
CC(C)CCNC(=O)C1CCCN(c2ccnc(-c3ccc(F)cc3)n2)C1 (stereo unspecified),i,0.96

# Arranged by SMILES length (highest first): part of the list above
SMILES,Anaer choline gr,Anaer choline gr early
Cc1nc2cc(C(=O)NC3CCN(Cc4ccccc4)CC3)ccc2n(Cc2ccccc2)c1=O,i,-0.77
CCn1c(=O)c(-c2noc(C(=O)N3CCCC3)n2)nn(-c2ccc(F)cc2)c1=O,i,-0.31
Cc1nc2nc(-c3ccc(C(C)(C)C)cc3)nn2c(C)c1CC(=O)N1CCCC1,i,-0.94

# (list continues)
SMILES,Anaer choline gr,Anaer choline gr early
Cc1cccc(C(=O)NC(=NCc2ccncc2)Nc2ccc3c(c2)OCO3)c1,i,-1.69
CCCc1cc(C2CCCN2Cc2ccccc2Br)no1 (stereo unspecified),i,0.57
COC(=O)c1scc(-c2ccccc2)c1S(=O)(=O)N1CCC(C(N)=O)(N2CCCCC2)CC1,i,0.53
CS(=O)(=O)N1CCN(c2ccc(NCc3ccccc3)nn2)CC1,i,-0.12
O=C(NCc1ccc2c(c1)OCO2)C1CCCN(S(=O)(=O)N2CCOCC2)C1 (stereo unspecified),i,-2.07
CCn1c2c(c(SCc3ccccc3C)nc1=O)CCC2,i,0.1
O=C(CN1C(=O)c2ccccc2C1=O)NC1CCCCNC1=O (stereo unspecified),i,-0.85
Cc1ccc(C)c(CSc2nnc(-c3sc4ncccc4c3N)n2C)c1,i,-1.09
CCCCCCCC/C=C\CCCCCCCC(=O)N[C@H](CO)Cc1ccc(O)cc1,i,1.48
CC(=O)OC1CCN(C(=O)NC(C)(C)C)CC1,i,0.13
OC(CCCN1CCN(c2ncc(F)cn2)CC1)c1ccc(F)cc1 (stereo unspecified),i,-0.49
O=C(NCCc1ccc(Cl)cc1)c1ccc(CSc2nc3ccncc3[nH]2)cc1,i,-0.16
CCCc1c(C)nc(N2CCN(c3ccccc3F)CC2)[nH]c1=O,i,1.46
CCC1CCCCN1C(=O)C1=CC(c2ccccc2OC)=NS(=O)(=O)N1C (stereo unspecified),i,0.5
O=c1[nH]c2ccc(NCc3ccccc3Cl)cc2[nH]1,i,1.66
Cc1ccc(C2C3=C(CC(c4ccccc4)CC3=O)Nc3onc(C)c32)cc1 (stereo unspecified),i,1.26
c1ccc2[nH]c(C3CCN(c4nn5cnnc5c5ccccc45)CC3)nc2c1,i,0.18
Nc1nc(Nc2ccccc2)sc1C(=O)c1ccc(Br)cc1,i,1.82
CCCCNC(=O)c1cc2cccc3c2n1CC(CC)O3 (stereo unspecified),i,1.71
Cc1nnc(-c2cc(S(=O)(=O)Nc3ccc(S(N)(=O)=O)cc3)c(C)n2C)o1,i,0.54
O=C1C(=O)N(C2CCN(S(=O)(=O)c3ccc4c(c3)CCCC4)CC2)CCN1Cc1ccc(F)cc1,i,0.13
CCC(C(=O)N1CCN(c2ccc(F)cc2)CC1)N1CCN(Cc2ccc(F)cc2)C(=O)C1=O (stereo unspecified),i,-0.19
CCOC(=O)c1oc2ccc(S(=O)(=O)N3CCN=C3N3CCN(c4cccc(Cl)c4)CC3)cc2c1C,i,0.15
O=C(CN1C(=O)C2CCCCN2c2ccc(C(=O)N3CCCCC3)cc21)N1CCc2ccccc2C1 (stereo unspecified),i,0.22
O=S(=O)(c1ccc(F)c(Cl)c1)N1CCN(c2nc3cccnc3s2)CC1,i,-0.15

# Later entries.
SMILES,Anaer choline gr,Anaer choline gr early
NC(=O)Cn1c(=O)n(Cc2ccc3c(c2)OCO3)c(=O)c2oc3ccccc3c21,i,1.71
Cc1ccc(-c2ccc(=O)n(-c3c(C)noc3C)n2)cc1S(=O)(=O)Nc1ccc(Cl)cn1,i,-0.14
CC(C)c1ccc(CNc2nc3nc(CN4CCCC4)cc(=O)n3[nH]2)cc1,i,-0.61
COCCNCc1ccc(-c2cc(Cl)ccc2Cl)o1,i,-0.86
Cc1nc(-c2cc3cccc(C)c3nc2N2CCN(C)CC2)no1,i,-2.46
COc1ccc(C)cc1NC(=O)C1CC(=O)Nc2ncnn21 (stereo unspecified),i,-1.14
Cc1nc(-c2cc(S(=O)(=O)N3CCC(C(=O)Nc4ccc5c(c4)OCCO5)CC3)c(C)s2)no1,i,-0.84
CC1(C(=O)NC2CCCC2)Cn2c(cc3ccccc32)C(=O)N1C1CC1 (stereo unspecified),i,-0.72
CC(C)CCNC(=O)C1(C)Cn2nc(C(C)(C)C)cc2C(=O)N1c1ccc(F)cc1 (stereo unspecified),i,-1.8
CCC1CCCCN1Cc1ccn(C)c(=O)c1 (stereo unspecified),i,0.44
O=C(Nc1ccc(Cl)cc1F)C1CCCN(C(=O)c2cc(-c3ccccn3)n[nH]2)C1 (stereo unspecified),i,1.14
COc1ccc(NC(=O)Cn2c(=O)c3c(OC)ccnc3n(C)c2=O)c(OC)c1,i,1.03
Cc1ccc2c(c1)c1c(n2CC(O)CNCc2ccccc2)CCCC1 (stereo unspecified),+,-0.69*
Cc1ccc(NC(=O)N2CCCN(c3ccc(=O)n(-c4ccc(F)cc4)n3)CC2)cc1C,i,0.21
CCN1CCCC1CNC(=O)C1CCN(c2nnc(C)c3c(C)n(-c4ccc(C)cc4)nc23)CC1 (stereo unspecified),i,-1.15
O=C(Nc1ccc(-c2nc(-c3cccc(Br)c3)co2)cc1)Nc1ccc2c(c1)OCCO2,i,-0.89
CN1CCN(C(=O)CCCn2c(=O)c3cccn3c3ccc(Br)cc32)CC1,i,-0.7
COCCn1c(SCc2nc(-c3ccccc3)no2)nc2cc3c(cc2c1=O)OCO3,i,1.83
O=C1CCCN1Cc1cc(Cl)c2cccnc2c1O,i,-3.19
O=S1(=O)N=CN(Cc2ccc(F)cc2)c2ccccc21,i,-1.69
CN/C(=C/[N+](=O)[O-])NCCSCc1ccc(CN(C)C)o1,i,0.66&-1.13&-1.26
CCOc1ccccc1NC(=O)N1CCc2c([nH]c3ccccc23)C1c1cccnc1 (stereo unspecified),i,-1.03
CCCn1c(SCc2nc(-c3ccc(CC)cc3)no2)nc2cc3c(cc2c1=O)OCO3,i,0.99
C=CCn1c(SCC(=O)NCCc2ccccc2)nc2sc3c(c2c1=O)CCCC3,i,-0.05
Cc1nc2cc(-c3noc(-c4cc(F)ccc4F)n3)ccc2o1,i,-0.22

# An excerpt of these results, with two lines to a compound.
# Fields – Anaer choline gr | Anaer choline gr early
> CCOc1ccccc1NC(=O)N1CCc2c([nH]c3ccccc23)C1c1cccnc1 (stereo unspecified)
  i | -1.03
> CCCn1c(SCc2nc(-c3ccc(CC)cc3)no2)nc2cc3c(cc2c1=O)OCO3
  i | 0.99
> Cc1nc2cc(-c3noc(-c4cc(F)ccc4F)n3)ccc2o1
  i | -0.22
> O=C(Nc1ccc(-c2nc(-c3cccc(Br)c3)co2)cc1)Nc1ccc2c(c1)OCCO2
  i | -0.89
> COCCNCc1ccc(-c2cc(Cl)ccc2Cl)o1
  i | -0.86
> CC1(C(=O)NC2CCCC2)Cn2c(cc3ccccc32)C(=O)N1C1CC1 (stereo unspecified)
  i | -0.72
> Cc1ccc(NC(=O)N2CCCN(c3ccc(=O)n(-c4ccc(F)cc4)n3)CC2)cc1C
  i | 0.21

# Part of the list above, with each value named:
CC(C)c1ccc(CNc2nc3nc(CN4CCCC4)cc(=O)n3[nH]2)cc1
  Anaer choline gr: i
  Anaer choline gr early: -0.61

COCCNCc1ccc(-c2cc(Cl)ccc2Cl)o1
  Anaer choline gr: i
  Anaer choline gr early: -0.86

Cc1nc(-c2cc3cccc(C)c3nc2N2CCN(C)CC2)no1
  Anaer choline gr: i
  Anaer choline gr early: -2.46

# Further compounds:
SMILES,Anaer choline gr,Anaer choline gr early
CCn1c(CCc2ccc(NS(=O)(=O)c3ccc(Cl)cc3)cc2)nc2ccccc21,i,1.47
Cc1ccc(S(=O)(=O)N2CCN(CCNC(=O)C3CCCCC3)CC2)cc1,i,0.08
Cc1oc(-c2ccccc2)nc1Cn1nnc(-c2nc(-c3ccc(Cl)cc3)no2)c1C,i,-1.03
CCOC(=O)c1cc(NC(=O)N(Cc2ccccc2Cl)C2CCN(C)CC2)c(C)nc1C,i,-0.01
Cn1c(N2CCCC(C(=O)N3CCOCC3)C2)cc(=O)n(C)c1=O (stereo unspecified),i,-0.77
CCOc1ccc(C(=O)Nc2ccc3c(c2)N(S(=O)(=O)c2ccccc2)CCC3)cc1OCC,i,1.24
Cc1nn2c(SCC(=O)Nc3cccc(F)c3)nnc2[nH]c1=O,i,-0.42
Cc1ccc(S(=O)(=O)N2CCC3(CC2)NCCN=C3NCc2ccc(F)cc2)cc1,i,-0.6
CCn1c(=S)[nH]c2nc(N3CCC(C)CC3)sc2c1=O,i,0.66
O=C1NCCCC1N1CCCC1 (stereo unspecified),i,0.01
CC(=O)N(CC(C)C(=O)O)c1c(I)cc(I)c(N)c1I (stereo unspecified),i,0.57
COc1cc2[nH]c(=O)n(CCCC(=O)NCCCN3CCN(c4cccc(Cl)c4)CC3)c(=O)c2cc1OC,i,0.11
CCOC(=O)c1c(C)c(S(=O)(=O)NCC2CCCO2)c(C)n1C (stereo unspecified),i,-0.15
CC(C)CNC(=O)C1CCN(c2cc(-c3ccc(F)cc3)ncn2)CC1,i,0.48
C=CCOc1ccc(C2CC(=O)Nc3nc(N)[nH]c(=O)c32)cc1 (stereo unspecified),i,-0.3
COc1ccc(N(Cc2nc3nc(C)c(Cl)c(C)n3n2)C(=O)C(C)C)cc1,i,0.65
CCOc1ccc(NC(=O)NCCC2CCN(C(=O)Nc3cccc(Cl)c3)CC2)cc1,i,1.72
COC(=O)Cn1c(C(O)c2ccccc2)nc2ccccc21 (stereo unspecified),i,0.05
COc1ccc(C2=CC(c3ccccc3Cl)n3nc(-c4ccc(Cl)cc4)nc3N2)cc1 (stereo unspecified),i,0.89
O=C1CN(Cc2ccc(F)cc2Cl)S(=O)(=O)c2ccccc2N1Cc1ccc(Cl)cc1,i,1.16
CC(=O)Nc1ccc(-c2noc(C3CCCN(C(=O)Cc4ccccc4C)C3)n2)cc1 (stereo unspecified),i,0.07
CC(C)Oc1ccc(CNS(=O)(=O)c2cc(-c3nc(C(C)C)cs3)cs2)cc1,i,-0.7
CCC(C)N1C(=O)c2c(NC(C)=O)c3cc(F)ccc3n2CC1(C)C(=O)NC1CCCC1 (stereo unspecified),i,0.81
CCn1nnc2cc(-c3noc(C(C)NS(=O)(=O)c4ccc(C)cc4)n3)ccc21 (stereo unspecified),i,-0.15
C=CCOc1ccc(C2CC(=O)Nc3c2c(C)nn3-c2nc3ccccc3s2)cc1OCC (stereo unspecified),i,0.21

# (next part)
SMILES,Anaer choline gr,Anaer choline gr early
CC#CCOC(=O)C1=CCCN(C)C1,i,0.79
O=C(NC1CCCCC1)N1CCCC1c1ccc(Cl)cc1 (stereo unspecified),i,-0.6
CC1=C(C(N)=O)C(c2ccc(Cl)cc2)n2ncnc2N1 (stereo unspecified),i,-1.91
O=C(c1cc(=O)nc2sc(N3CCOCC3)nn12)N1CCC(N2CCCCC2)CC1,i,-0.85
CCCCNC(=O)c1nn(-c2ccc(OC)cc2)c(=O)n(C)c1=O,i,-0.65
CCC(C(=O)NCC(=O)NCc1cscn1)c1ccccc1 (stereo unspecified),i,-0.29
CC1CCCC2(C1)NCCN=C2NCc1ccc(Cl)cc1 (stereo unspecified),i,-2.01
Cc1nnc2ccc(-n3ncc4c3NC(=O)CC4c3ccc(OCc4ccccc4F)cc3)nn12 (stereo unspecified),i,0.83
